MLL AF4-AF9 inh: blocks AF4 peptide binding to human AF9 | AID 651704 | AlphaScreen, biotin-AF4 peptide binding to FLAG-AF9 | hit rate 0.47% among 350,000 | inhibition, % at 10 µM | P42568;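 active means every replicate reaching a set inhibition limit, whatever the replicate mean, cut at about 25% in these data; inconclusive means mean inhibition reaches that limit but some replicates miss it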;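 further: 0% = plate neutral control median and 100% = total signal loss; the record names both 10 and 1 µM as test concentration; the first replicate is given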
Target sequence (P42568 whole entry, looked up): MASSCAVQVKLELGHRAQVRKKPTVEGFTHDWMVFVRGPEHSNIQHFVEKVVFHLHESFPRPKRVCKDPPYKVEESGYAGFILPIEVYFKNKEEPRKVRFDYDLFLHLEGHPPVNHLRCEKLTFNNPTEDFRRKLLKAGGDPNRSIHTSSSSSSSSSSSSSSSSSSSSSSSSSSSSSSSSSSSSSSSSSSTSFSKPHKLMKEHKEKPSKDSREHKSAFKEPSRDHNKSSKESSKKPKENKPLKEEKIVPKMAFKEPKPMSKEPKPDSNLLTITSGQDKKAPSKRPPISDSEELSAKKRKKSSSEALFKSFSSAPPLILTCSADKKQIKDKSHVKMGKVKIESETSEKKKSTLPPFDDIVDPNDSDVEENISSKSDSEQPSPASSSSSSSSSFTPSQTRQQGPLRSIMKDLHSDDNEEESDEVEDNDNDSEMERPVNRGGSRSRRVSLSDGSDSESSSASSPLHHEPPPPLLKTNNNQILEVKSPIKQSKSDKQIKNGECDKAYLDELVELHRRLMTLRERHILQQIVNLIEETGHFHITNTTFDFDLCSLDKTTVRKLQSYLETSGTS
rRNA inh HTS: inhibits bacterial ribosomal RNA function over humanized ribosomes; E. coli WT GFP vs humanized-ribosome RFP mutants, fluorescence, 24 h; active compounds read low; DMSO median 0, no signal -100; GFP signal change (wild-type ribosome), % (no concentration beside the values); hit rate 1.6% among 350,000; AID 720706;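 active means significant combined selectivity score with lowered wild-type GFP, culture density cut under 30%, mutant RFP and density less affected; inactive means any of these conditions unmet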; further: one replicate is shown; some compounds called inactive have numbers as strong as hits
rRNA inh HTS OD600: further read-out of rRNA inh HTS, marked with its call; OD600 change, %; measured here: OD600 growth;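 optical density of the mix in the first replicate; 0 = DMSO median and -100 = no signal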
rRNA inh HTS RFP: recorded beside rRNA inh HTS, whose call it bears; RFP signal change, %; measured here: RFP humanized mutant strains;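 first replicate; 0 = DMSO median and -100 = no signal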
Active calls of the source: *; i = inactive; ? = inconclusive; · = not tested or not shown. The list is partial; rates above refer to the full screens.

No.	MLL AF4-AF9 inh	rRNA inh HTS	rRNA inh HTS OD600	rRNA inh HTS RFP	SMILES
1	0.9	-23	-53	18	COc1ccc(C(C)=O)cc1CC1(C)C(=O)Nc2ccc(-c3ccccc3OC)cc21 (configuration not stated)
2	-0.1	4	-3	0.2	C[C@@H]1CN([C@@H](C)CO)C(=O)c2cc(NC(=O)Nc3cccc4ccccc34)ccc2O[C@@H]1CN(C)S(=O)(=O)c1ccc(F)cc1
3	0.1	-17*	3.5*	1.2*	CC1(C(=O)NS(=O)(=O)c2ccccc2Cl)CCN1C(=O)C1(c2ccc(Cl)cc2)CCC1 (configuration not stated)
4	-0.7	-2	-2	0.5	N#Cc1ccc(-c2nc3ccc(Br)cn3c2Cc2ccsc2)cc1
5	3.2	1	1	2.0	C[C@H]1CN([C@@H](C)CO)C(=O)c2cc(C#CC3CCCCC3)cnc2O[C@@H]1CN(C)C(=O)Cc1ccccn1
6	2.2	-10	-52	31	COc1ccc2c3c([nH]c2c1)[C@H](CO)N(Cc1ccc(Cl)cc1)CC31CCN(Cc2ccccc2)CC1
7	-1.4	-9	-9	8.2	C[C@@H]1CN([C@@H](C)CO)C(=O)Cc2cc(NS(=O)(=O)c3ccc(Cl)cc3)ccc2O[C@H]1CN(C)Cc1ccncc1
8	-0.3	0	-1	-1.0	CC(C)NC(=O)Nc1ccc2c(c1)C(=O)N([C@H](C)CO)C[C@@H](C)[C@@H](CN(C)C(=O)NC1CCCCC1)OCCCC[C@H](C)O2
9	0.4	0	1	-0.7	C[C@@H]1CN([C@H](C)CO)C(=O)c2cc(NC(=O)CCCN(C)C)ccc2O[C@@H](C)CCCCO[C@@H]1CN(C)S(=O)(=O)c1cccs1
10	-3.0	4	2	-3.1	C[C@@H]1CN([C@H](C)CO)C(=O)Cc2cc(NS(C)(=O)=O)ccc2O[C@H]1CN(C)Cc1ccc(C(=O)O)cc1
11	3.1	3	-5	-0.7	C[C@@H]1CN([C@H](C)CO)C(=O)Cc2cc(NC(=O)CCN3CCOCC3)ccc2O[C@@H]1CN(C)Cc1ccc(C(F)(F)F)cc1
12	-0.2	2	6	-1.3	CCC(=O)N[C@@H]1CC[C@H](CCNS(=O)(=O)c2ccc(Cl)cc2)O[C@H]1CO
13	-0.5	-10	-3	3.2	COC(=O)C[C@@H]1CC[C@H](NC(=O)Nc2ccc(C(F)(F)F)cc2)[C@H](CO)O1
14	-0.6	-1	-4	0.4	CCC(=O)N1C[C@@H](C)[C@H](OC)CN(C)C(=O)c2cc(NC(=O)Nc3ccccc3)ccc2OC[C@H]1C
15	3.2	-6	-20	1.6	O=C(c1ccc2c(c1)OCO2)N1C[C@@H]2[C@H](c3ccccc31)[C@H](CO)N2Cc1ccc2c(c1)OCO2
16	-2.8	3	2	-0.1	C[C@H](CO)N1C[C@H](C)[C@H](CN(C)Cc2ccc3c(c2)OCO3)Oc2ccc(NC(=O)CCC(F)(F)F)cc2C1=O
17	-1.4	0	-1	1.3	C[C@H]1CN([C@@H](C)CO)C(=O)c2cccc(NC(=O)Nc3ccccc3)c2O[C@@H]1CN(C)C
18	6.9	-2	-8	2.5	COc1ccc2c3c([nH]c2c1)[C@@H](CO)N(Cc1ccccc1F)CC31CN(C(=O)C2CCCC2)C1
19	-3.8	-2	-5	-2.2	C[C@@H]1CN([C@H](C)CO)C(=O)c2ccccc2-c2ccccc2CO[C@@H]1CN(C)C(=O)c1ccccc1
20	3.9	0	-8	1.9	C[C@@H]1CN([C@@H](C)CO)S(=O)(=O)c2ccc(-c3ccccc3)cc2O[C@H]1CN(C)C(=O)Nc1ccccc1F
21	0.8	15	13	0.4	O=S1(=O)CC(N2CCCCC2)CN1Cc1cn(Cc2ccccc2)nn1 (configuration not stated)
22	-0.2	6	15	-1.9	Cc1nc(C(F)(F)F)ccc1C(=O)N1CCCC(C(=O)O)CC1 (configuration not stated)
23	6.9	5	-3	0.8	C[C@H]1CN([C@@H](C)CO)C(=O)c2cc(NC(=O)Nc3ccc4c(c3)OCO4)ccc2O[C@H]1CN(C)Cc1ccccc1
24	-1.8	-4	-5	-1.2	C[C@H]1CN([C@@H](C)CO)S(=O)(=O)c2ccc(-c3ccncc3)cc2O[C@H]1CN(C)Cc1cccnc1
25	1.8	-1	-6	-2.6	C[C@H]1CN([C@@H](C)CO)C(=O)c2cc(NC(=O)NC3CCCCC3)ccc2O[C@H]1CN(C)S(=O)(=O)c1ccccc1
26	3.4	-3	-4	4.1	COc1ccc(C(=O)NC(C(=O)N2CCN(C/C=C/c3ccccc3)CC2)C(C)C)cc1 (configuration not stated)
27	-7.3	15	18	1.2	O=C1CC[C@@H]2CC(N3CCN(c4ccccc4)CC3)C[C@@H]3CCN1[C@H]23 (some centres not stated)
28	-2.0	-1	1	-4.2	C[C@H]1CN([C@@H](C)CO)C(=O)c2cccc(N(C)C)c2O[C@@H]1CN(C)C(=O)Nc1ccccc1
29	-0.2	1	3	-5.3	N#Cc1ccc(-c2ccc3c(c2)[C@H]2[C@H](CCN2C(=O)CN2CCOCC2)[C@H](CO)N3)cc1
30	-0.2	1	0	-0.8	CC(C)C(=O)Nc1ccc2c(c1)C(=O)N(C)[C@@H]1CC[C@@H](CC(=O)NC3CCCC3)O[C@H]1CO2
31	-2.3	-2	-3	-0.9	CO[C@@H]1CN(C)C(=O)c2ccc(NC(=O)C3CC3)cc2OC[C@H](C)N(Cc2ccncc2)C[C@H]1C
32	0.3	0	-2	-0.7	CCCNC(=O)N1C[C@H]2[C@@H](c3ccccc31)[C@H](CO)N2C(=O)Nc1ccccc1
33	0.3	-1	1	2.2	COc1ccc(S(=O)(=O)N(C)C[C@@H]2Oc3ccc(NS(=O)(=O)c4ccc(F)cc4)cc3CC(=O)N([C@@H](C)CO)C[C@@H]2C)cc1
34	-4.2	3	7	3.1	CCC(=O)N[C@H]1CC[C@@H](CC(=O)NCC2CC2)O[C@@H]1CO
35	-8.2	4	10	-0.7	CCC(=O)N1[C@@H]2c3ccc(-c4ccccc4F)c(=O)n3C[C@@H]2[C@@H](CO)[C@@H]1C(=O)NCCCN(C)C
36	0.4	-2	-3	-0.5	CC=Cc1ccc2n(c1=O)C[C@@H]1[C@@H](CO)[C@H](C(=O)NCc3cccc(OC)c3)N[C@H]21 (mixture of isomers)
37	0.6	2	-1	1.5	CCNC(=O)C[C@@H]1CC[C@@H]2[C@@H](COc3ccc(NC(=O)Nc4ccc(F)cc4)cc3C(=O)N2C)O1
38	-0.7	1	4	-3.6	C[C@H]1CCCCO[C@H](CN(C)S(C)(=O)=O)[C@@H](C)CN([C@@H](C)CO)C(=O)c2cc(NS(=O)(=O)c3cn(C)cn3)ccc2O1
39	4.6	i	·	·	O=C(C[C@H]1CC[C@@H]2[C@H](COC[C@H](O)CN2Cc2ccc(C(F)(F)F)cc2)O1)N1CCc2ccccc2C1
40	-1.7	-2	2	1.8	COc1ccc(C(=O)Nc2ccc3c(c2)OC[C@H](C)N(C(C)=O)C[C@H](C)[C@@H](OC)CN(C)C3=O)cc1
41	-2.1	8	18	-0.7	O=C(NC1CCCCC1)N1CC(=O)N2[C@H](C1)[C@H](c1ccc(-c3cccnc3)cc1)[C@@H]2CO
42	-2.8	2	2	-1.0	CO[C@@H]1CN(C)C(=O)c2ccc(NC(=O)Nc3c(C)noc3C)cc2OC[C@@H](C)N(C)C[C@H]1C
43	7.0	-3	6	0.8	COc1cccc(-c2ccc3c(c2)[C@H]2[C@H](CCN2S(=O)(=O)c2ccccc2OC)[C@@H](CO)N3)c1
44	?	-5	-2	2.4	C[C@@H]1CCCCO[C@H](CN(C)C(=O)Nc2cccc3ccccc23)[C@H](C)CN([C@@H](C)CO)C(=O)c2cc(N(C)C)ccc2O1
45	0.7	1	3	-1.3	CCCC(=O)Nc1ccc2c(c1)C(=O)N(C)C[C@H](OC)[C@H](C)CN(C)[C@H](C)CO2
46	-0.7	4	13	-4.8	CN(C)C(=O)c1cccc(-c2ccc([C@H]3[C@@H](CO)N4CCCCN(S(C)(=O)=O)C[C@@H]34)cc2)c1
47	12	-3	-21	7.6	C[C@@H]1CN([C@@H](C)CO)C(=O)Cc2cc(NS(=O)(=O)c3ccccc3)ccc2O[C@H]1CN(C)Cc1ccc2c(c1)OCO2
48	0.1	-1	1	-2.2	C[C@@H]1CCCCO[C@@H](CN(C)C(=O)Nc2ccc(C(F)(F)F)cc2)[C@H](C)CN([C@@H](C)CO)C(=O)c2cc(NC(=O)Nc3ccccc3)ccc2O1
49	2.6	0	-8	3.6	CO[C@@H]1CN(C)C(=O)c2cc(NS(=O)(=O)c3cccc(F)c3)ccc2OC[C@H](C)N(Cc2cc(F)ccc2F)C[C@H]1C
50	4.4	-10	-32	15	CC(C)CC#Cc1ccc2c(c1)O[C@H](CN(C)C(=O)CC1CC1)[C@H](C)CN([C@@H](C)CO)S2(=O)=O
51	-5.0	-2	1	-6.4	CCC(=O)N1CC[C@@H]2[C@H](CO)Nc3ccc(C#Cc4ccc(OC)cc4)cc3[C@@H]21
52	4.8	-4	-5	0.0	CCCNC(=O)NC[C@H]1[C@@H](c2ccc(C3=CCCCC3)cc2)[C@@H](CO)N1C(C)=O
53	8.7	-10	-19	3.9	COc1ccc(NC(=O)N(C)C[C@@H]2Oc3c(NC(=O)c4nc5ccccc5s4)cccc3C(=O)N([C@H](C)CO)C[C@@H]2C)cc1
54	10	-6	-41	28	C[C@@H]1CN([C@H](C)CO)S(=O)(=O)c2ccc(C#Cc3ccccc3)cc2O[C@@H]1CN(C)CC1CC1
55	8.7	-4	-4	1.5	C[C@@H]1CN([C@@H](C)CO)C(=O)c2cc(/C=C/c3ccccc3)cnc2O[C@@H]1CN(C)C(=O)c1ccc2c(c1)OCO2
56	5.5	-6	-10	-2.2	C[C@H](CO)N1C[C@H](C)[C@H](CN(C)C(=O)Cc2cccnc2)Oc2cc(C3=CCCCC3)ccc2S1(=O)=O
57	7.0	-56	-80	-17	COC(=O)C1=C(C)N(Cc2cccc(C(F)(F)F)c2)C(=NCC2CC2)NC1c1cccc(Cl)c1 (configuration not stated)
58	-1.1	3	24	-0.8	C/C=C/c1ccccc1[C@@H]1[C@@H](CO)N(C(=O)CN2CCOCC2)[C@H]1C#N
59	-0.3	9	19	-0.6	O=C(NCc1ccccc1F)Nc1nnc([C@H]2C[C@H](O)[C@@H](CO)O2)s1
60	-9.8	0	19	2.1	C[C@H](CO)N1C[C@H](C)[C@@H](CN(C)S(=O)(=O)c2cccc(F)c2)Oc2ncc(C#CC3(O)CCCC3)cc2C1=O

(more compounds)
No.	MLL AF4-AF9 inh	rRNA inh HTS	rRNA inh HTS OD600	rRNA inh HTS RFP	SMILES
61	1.2	-3	-10	0.0	C[C@H]1CN([C@@H](C)CO)S(=O)(=O)c2ccc(-c3cccc(C#N)c3)cc2O[C@@H]1CN(C)C(=O)c1ccncc1
62	-2.4	0	1	3.7	O=C(NC1CCC1)[C@H]1[C@H](CO)[C@H]2Cn3c(ccc(-c4ccccc4)c3=O)[C@H]2N1Cc1ccccn1
63	-3.9	-2	3	-1.8	C[C@@H]1CN([C@@H](C)CO)C(=O)c2cc(NS(=O)(=O)c3ccc(Cl)cc3)ccc2O[C@H]1CN(C)Cc1ccc(C(=O)Nc2ccccc2N)cc1
64	3.7	7	15	4.4	OCCC(N1CCOCC1)C(O)(c1ccccc1)c1ccccc1 (configuration not stated)
65	20	0	-8	-1.8	CCS(=O)(=O)N1CCCCN2[C@H](C1)[C@H](c1ccc(-c3ccccc3C)cc1)[C@@H]2CO

Structural class: the entries above containing a CF3 group.
No.	MLL AF4-AF9 inh	rRNA inh HTS	rRNA inh HTS OD600	rRNA inh HTS RFP	SMILES
11	3.1	3	-5	-0.7	C[C@@H]1CN([C@H](C)CO)C(=O)Cc2cc(NC(=O)CCN3CCOCC3)ccc2O[C@@H]1CN(C)Cc1ccc(C(F)(F)F)cc1
13	-0.5	-10	-3	3.2	COC(=O)C[C@@H]1CC[C@H](NC(=O)Nc2ccc(C(F)(F)F)cc2)[C@H](CO)O1
16	-2.8	3	2	-0.1	C[C@H](CO)N1C[C@H](C)[C@H](CN(C)Cc2ccc3c(c2)OCO3)Oc2ccc(NC(=O)CCC(F)(F)F)cc2C1=O
22	-0.2	6	15	-1.9	Cc1nc(C(F)(F)F)ccc1C(=O)N1CCCC(C(=O)O)CC1 (configuration not stated)
39	4.6	i	·	·	O=C(C[C@H]1CC[C@@H]2[C@H](COC[C@H](O)CN2Cc2ccc(C(F)(F)F)cc2)O1)N1CCc2ccccc2C1
48	0.1	-1	1	-2.2	C[C@@H]1CCCCO[C@@H](CN(C)C(=O)Nc2ccc(C(F)(F)F)cc2)[C@H](C)CN([C@@H](C)CO)C(=O)c2cc(NC(=O)Nc3ccccc3)ccc2O1
57	7.0	-56	-80	-17	COC(=O)C1=C(C)N(Cc2cccc(C(F)(F)F)c2)C(=NCC2CC2)NC1c1cccc(Cl)c1 (configuration not stated)

An excerpt of these results, with each value named:
32	CCCNC(=O)N1C[C@H]2[C@@H](c3ccccc31)[C@H](CO)N2C(=O)Nc1ccccc1
  MLL AF4-AF9 inh: 0.3
  rRNA inh HTS: 0
  rRNA inh HTS OD600: -2
  rRNA inh HTS RFP: -0.7
33	COc1ccc(S(=O)(=O)N(C)C[C@@H]2Oc3ccc(NS(=O)(=O)c4ccc(F)cc4)cc3CC(=O)N([C@@H](C)CO)C[C@@H]2C)cc1
  MLL AF4-AF9 inh: 0.3
  rRNA inh HTS: -1
  rRNA inh HTS OD600: 1
  rRNA inh HTS RFP: 2.2
